UUG fidelity: yeast start codon fidelity modulation. AID 602363. activity score, % at 18.7 µM. S. cerevisiae UUG-firefly luciferase reporter, luminescence/redox ratio. hit rate 0.13% among 350,000;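 active means replicate mean at a twofold rise or more, about +100% in these data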;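 further: firefly luciferase made from a UUG start codon reports start codon fidelity; reporter light over untreated wells divided by growth signal over untreated wells; some hits fall short of that in this replicate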
* marks the source's active call; other numbers are inactive results; & = joins results of further samples.

Start of the listing, in advance (2 entries):
canonical_smiles | UUG fidelity
CO[C@H]1CN(C)C(=O)c2cc(NS(C)(=O)=O)ccc2OC[C@@H](C)N(C(=O)C2CCCC2)C[C@@H]1C | 7
COc1ccc(S(=O)(=O)N(C)C[C@H]2Oc3c(NC(=O)c4cnccn4)cccc3C(=O)N([C@H](C)CO)C[C@@H]2C)cc1 | -5

Main list, repeating the preview:
canonical_smiles | UUG fidelity
CO[C@H]1CN(C)C(=O)c2cc(NS(C)(=O)=O)ccc2OC[C@@H](C)N(C(=O)C2CCCC2)C[C@@H]1C | 7
COc1ccc(S(=O)(=O)N(C)C[C@H]2Oc3c(NC(=O)c4cnccn4)cccc3C(=O)N([C@H](C)CO)C[C@@H]2C)cc1 | -5
COc1ccc(CN(C)C[C@H]2Oc3ccc(NC(=O)Nc4ccc(OC)cc4)cc3CC(=O)N([C@@H](C)CO)C[C@H]2C)cc1 | 22
C/C=C/c1ccc([C@@H]2[C@@H](CO)N(C(C)=O)[C@H]2CN(C)C(=O)CN(C)C)cc1 | 0
O=C(c1ccccc1F)N1C[C@@H]2[C@H](c3ccccc31)[C@@H](CO)N2C(=O)Nc1ccccc1 | 1
CN(C)C(=O)c1ccc(-c2ccc([C@H]3[C@@H](CO)N4CCCCN(S(C)(=O)=O)C[C@@H]34)cc2)cc1 | 7
COCC(=O)N1[C@@H]2CN(C(=O)Nc3ccccc3F)c3ccccc3[C@@H]2[C@@H]1CO | 3
C[C@H]1CN([C@@H](C)CO)C(=O)c2cccc(NC(=O)c3ccncc3)c2O[C@H]1CN(C)Cc1ccc(Oc2ccccc2)cc1 | -3
CCC(=O)NC[C@@H]1[C@H](c2ccc(-c3ccccc3)cc2)[C@@H](CO)N1C(=O)C1CC1 | -12
COc1ccc(S(=O)(=O)Nc2cccc3c2O[C@H](CN(C)Cc2ccc(C(=O)Nc4ccccc4N)cc2)[C@H](C)CN([C@@H](C)CO)C3=O)cc1 | 8
COc1ccc(C#Cc2cnc3c(c2)C(=O)N([C@H](C)CO)C[C@H](C)[C@H](CN(C)S(=O)(=O)c2cccs2)O3)cc1OC | 14&1
COCCNC(=O)C[C@@H]1CC[C@H]2[C@H](COc3ccc(NC(=O)C4CCOCC4)cc3C(=O)N2C)O1 | -3
C[C@H](CO)N1C[C@H](C)[C@H](CN(C)S(C)(=O)=O)Oc2ccc(NS(=O)(=O)c3cccs3)cc2C1=O | -10
C[C@H]1CN([C@@H](C)CO)C(=O)Cc2cc(NC(=O)Cc3cn(C)c4ccccc34)ccc2O[C@H]1CN(C)C | -9
C[C@@H]1CN([C@H](C)CO)C(=O)c2cccc(NS(=O)(=O)c3cn(C)cn3)c2O[C@H]1CN(C)C(=O)Nc1cccc2ccccc12 | -3
Cc1cccc(S(=O)(=O)N(C)C[C@H]2OCc3ccccc3-c3c(n(C)c4ccccc34)C(=O)N([C@H](C)CO)C[C@H]2C)c1 | -2
C[C@H]1CN([C@@H](C)CO)C(=O)Cc2cc(NC(=O)Nc3ccccc3)ccc2O[C@H]1CN(C)S(C)(=O)=O | -3
Cc1ccc(S(=O)(=O)N(C)C[C@H]2Oc3ccc(NC(=O)Cc4ccccc4)cc3C(=O)N([C@H](C)CO)C[C@@H]2C)cc1 | 5
COc1ccc(S(=O)(=O)Nc2ccc3c(c2)C(=O)N([C@@H](C)CO)C[C@@H](C)[C@H](CN(C)Cc2ccc(C(F)(F)F)cc2)O3)cc1 | 1
C[C@H](NC(=O)C[C@H]1C[C@H]2c3cc(NC(=O)CC4CC4)ccc3O[C@H]2[C@@H](CO)O1)c1ccccc1 | -3
CNC[C@H]1Oc2ccc(NS(=O)(=O)c3ccc(C)cc3)cc2CC(=O)N([C@H](C)CO)C[C@@H]1C | -9
C[C@H]1CN([C@@H](C)CO)C(=O)c2cc(NS(C)(=O)=O)ccc2O[C@H]1CN(C)S(=O)(=O)c1cccs1 | -2
CO[C@@H]1CN(C)C(=O)c2ccc(NC(=O)C3CCC3)cc2OC[C@H](C)N(C)C[C@H]1C | 6
C[C@H](CO)N1C[C@H](C)[C@H](CN(C)Cc2cccc(F)c2)Oc2ncc(C#CCc3ccccc3)cc2C1=O | -12
C[C@@H]1CN([C@H](C)CO)C(=O)c2cccc(NS(=O)(=O)c3ccc(F)cc3)c2O[C@H]1CN(C)C | 0
CO[C@H]1CN(C)C(=O)c2cc(NC(=O)C3CC3)ccc2OC[C@H](C)N(CC2CC2)C[C@H]1C | 3
CCCNC(=O)C[C@H]1CC[C@@H]2[C@H](COC[C@H](O)CN2Cc2ccc(Cl)c(Cl)c2)O1 | 24
CC(C)NC(=O)N1C[C@@H]2[C@H](c3ccccc31)[C@H](CO)N2C(=O)c1ccccc1 | 1
CN1CCN(C(=O)C[C@@H]2C[C@@H]3c4cc(NC(=O)Nc5ccc(F)cc5)ccc4O[C@@H]3[C@H](CO)O2)CC1 | 7
CN(C[C@H]1[C@@H](c2ccccc2)[C@H](CO)N1C(=O)C1CCC1)C(=O)c1ccccn1 | -7

The final two compounds of the section above open the next one:
canonical_smiles | UUG fidelity
CN1CCN(C(=O)C[C@@H]2C[C@@H]3c4cc(NC(=O)Nc5ccc(F)cc5)ccc4O[C@@H]3[C@H](CO)O2)CC1 | 7
CN(C[C@H]1[C@@H](c2ccccc2)[C@H](CO)N1C(=O)C1CCC1)C(=O)c1ccccn1 | -7
CCCNC(=O)[C@H]1[C@H](CO)[C@H]2Cn3c(ccc(C4=CCCC4)c3=O)[C@@H]1N2 | -3
COc1cccc(NC(=O)N2C[C@H](O)COC[C@@H]3O[C@H](CC(=O)NC4CCCC4)CC[C@H]32)c1 | 9
C[C@H](CO)N1C[C@H](C)[C@H](CN(C)Cc2ccc(-c3ccccc3)cc2)Oc2ccc(NS(C)(=O)=O)cc2C1=O | 7
CCN(C[C@H]1N[C@@H](CO)[C@H]1c1ccccc1)C(=O)c1ccccc1 | -2
COc1cccc(C(=O)Nc2ccc3c(c2)C(=O)N(C)[C@@H]2CC[C@@H](CC(=O)NCc4ccccc4F)O[C@@H]2CO3)c1 | 3
C[C@H](CO)N1C[C@H](C)[C@@H](CN(C)C)Oc2ccc(NS(=O)(=O)c3ccc(F)cc3)cc2C1=O | 7
C[C@@H]1CN([C@@H](C)CO)C(=O)Cc2cc(NC(=O)Cc3cn(C)c4ccccc34)ccc2O[C@@H]1CN(C)S(C)(=O)=O | 21
CN1c2ccc(-c3cccc(F)c3)cc2[C@H]2[C@H](CCN2S(=O)(=O)c2cccc(F)c2)[C@@H]1CO | 18
O=C(Nc1ccccc1F)N1C[C@H]2[C@@H](c3ccccc31)[C@H](CO)N2C(=O)C1CCCCC1 | 8
CC(C)NC(=O)Nc1ccc2c(c1)CC(=O)N([C@H](C)CO)C[C@H](C)[C@H](CN(C)Cc1ccc(C(F)(F)F)cc1)O2 | 19
COc1ccccc1CN1[C@H](CO)[C@H]2c3ccccc3N(C(=O)c3ccncc3)C[C@H]21 | -12
CC(C)NC(=O)N(C)C[C@H]1Oc2ccc(NC(=O)CCC(F)(F)F)cc2C(=O)N([C@@H](C)CO)C[C@@H]1C | 20
C[C@H](CO)N1C[C@H](C)[C@H](CN(C)C(=O)Nc2ccc(F)cc2)Oc2ccc(NC(=O)Cc3ccccc3)cc2C1=O | 22
C/C=C/c1ccc([C@@H]2[C@H](CO)N(C(C)=O)[C@H]2CNC(=O)c2ccncc2)cc1 | -14
C[C@H](CO)N1C[C@H](C)[C@H](CN(C)CC2CC2)OCc2ccccc2-c2c(n(C)c3ccccc23)C1=O | 12
COc1ccc(CN(C)C[C@@H]2Oc3c(NC(=O)NC(C)C)cccc3C(=O)N([C@H](C)CO)C[C@@H]2C)cc1 | 11
COC(=O)C[C@H]1C[C@H]2c3cc(NC(=O)Nc4ccccc4F)ccc3O[C@H]2[C@H](CO)O1 | -4
Cn1cnc(S(=O)(=O)N2CC[C@@H]3[C@@H](CO)Nc4ccc(-c5ccccc5F)cc4[C@@H]32)c1 | -5
O=C(Nc1ccccc1F)N1C[C@@H]2[C@H](c3ccccc31)[C@H](CO)N2C(=O)c1ccccn1 | 0
O=C(Nc1ccccc1Cl)N1C[C@H]2[C@@H](c3ccccc31)[C@@H](CO)N2C(=O)c1cccnc1 | -19
C/C=C/c1ccc([C@H]2[C@@H](CO)N3CCCCN(C(=O)c4ccc(F)cc4)C[C@@H]23)cc1 | 4
COCC(=O)NC[C@@H]1[C@@H](c2ccccc2)[C@H](CO)N1C(=O)c1ccccc1 | -3
CNC[C@@H]1Oc2ccc(NC(=O)Nc3ccc(F)cc3)cc2CC(=O)N([C@@H](C)CO)C[C@H]1C | 1
O=C(NC[C@@H]1N[C@@H](CO)[C@@H]1c1ccccc1)c1ccccc1F | 14
CO[C@H]1CN(C)C(=O)c2ccc(NC(=O)C3CCOCC3)cc2OC[C@@H](C)N(CC2CC2)C[C@H]1C | -6
CC(C)C#Cc1ccc([C@@H]2[C@H]3CN(C(=O)Nc4ccccc4)CCCCN3[C@H]2CO)cc1 | 10
COCC(=O)NC[C@H]1[C@@H](c2ccc(C3=CCCC3)cc2)[C@@H](CO)N1C(C)=O | -2
C[C@@H]1CN([C@@H](C)CO)C(=O)c2cccc(NC(=O)c3ccncc3)c2O[C@H]1CN(C)C(=O)Nc1ccc(F)cc1 | -9
Cc1cccc(S(=O)(=O)N(C)C[C@@H]2OCc3ccccc3-c3ccccc3C(=O)N([C@@H](C)CO)C[C@@H]2C)c1 | 37
C[C@H]1CN([C@@H](C)CO)C(=O)c2cc(NC(=O)c3ccncc3)ccc2O[C@H]1CN(C)Cc1ccc(-c2ccccc2)cc1 | 22

Three entries out of the list above, sorted by the value under UUG fidelity, lowest first:
canonical_smiles | UUG fidelity
O=C(Nc1ccccc1F)N1C[C@@H]2[C@H](c3ccccc31)[C@H](CO)N2C(=O)c1ccccn1 | 0
O=C(Nc1ccccc1F)N1C[C@H]2[C@@H](c3ccccc31)[C@H](CO)N2C(=O)C1CCCCC1 | 8
CN1c2ccc(-c3cccc(F)c3)cc2[C@H]2[C@H](CCN2S(=O)(=O)c2cccc(F)c2)[C@@H]1CO | 18

Next section:
canonical_smiles | UUG fidelity
OC[C@H]1[C@@H](c2ccc(C#CC3CCCC3)cc2)[C@H]2CN(CCC(F)(F)F)CCCCN21 | 16
OC[C@@H]1[C@H](c2ccc(C#CC3(O)CCCC3)cc2)[C@H]2CN(Cc3cncnc3)CCCCN12 | 4
C[C@H]1CN([C@@H](C)CO)C(=O)c2cccc(NC(=O)C3CCOCC3)c2O[C@H]1CN(C)C(=O)Nc1ccccc1 | 1
CC(C)NC(=O)Nc1ccc2c(c1)CC(=O)N([C@H](C)CO)C[C@@H](C)[C@@H](CN(C)S(=O)(=O)c1ccc(F)cc1)O2 | 4
CSCCC(NC(=O)c1ccccc1Br)C(=O)NNC(=O)c1ccco1 (stereo unspecified) | -15
CCCNC(=O)Nc1ccc2c(c1)C(=O)N(C)[C@@H]1CC[C@H](CC(=O)NCCCN(C)C)O[C@@H]1CO2 | 4
CCC(=O)N1CCCCN2[C@H](CO)[C@H](c3ccc(-c4ccc(F)cc4)cc3)[C@@H]2C1 | -1
O=C(C[C@@H]1CC[C@@H]2[C@H](COC[C@@H](O)CN2C(=O)c2ccccc2)O1)NCc1cccc(F)c1 | -11
COCC(=O)N1C[C@@H](C)[C@H](OC)CN(C)C(=O)c2cc(NC(=O)Nc3ccccc3)ccc2OC[C@@H]1C | 8
CO[C@@H]1CN(C)C(=O)c2ccc(NS(=O)(=O)c3ccccc3C)cc2OC[C@@H](C)N(S(=O)(=O)c2ccccc2)C[C@H]1C | -11
CN1C(=O)c2cc(NC(=O)Cc3cccs3)ccc2OC[C@@H]2O[C@H](CC(=O)NCC3CCCCC3)CC[C@H]21 | 22
COCC(=O)N1C[C@@H](C)[C@@H](OC)CN(C)C(=O)c2ccc(NC(=O)c3ccccc3)cc2OC[C@H]1C | 7
C[C@@H]1CN([C@@H](C)CO)C(=O)c2cc(NC(=O)C3CC3)ccc2O[C@@H]1CN(C)Cc1ccc(-c2ccccc2)cc1 | 3
C[C@H]1CN([C@@H](C)CO)C(=O)c2cc(NS(C)(=O)=O)ccc2O[C@H]1CN(C)C | -6
Cc1ccccc1-c1ccc([C@@H]2[C@H](CO)N3CCCCN(S(=O)(=O)c4cn(C)cn4)C[C@@H]23)cc1 | -9
CN1CCN(C(=O)C[C@@H]2CC[C@@H]3[C@H](COC[C@@H](O)CN3C(=O)C3CCCC3)O2)CC1 | -8
CO[C@@H]1CN(C)C(=O)c2ccc(NC(=O)c3ccccc3F)cc2OC[C@@H](C)N(C(=O)c2ccccc2F)C[C@H]1C | 3
C/C=C/c1ccc([C@@H]2[C@@H](CO)N3CCCCN(S(=O)(=O)c4ccc(F)cc4)C[C@H]23)cc1 | -4
CCN(C[C@H]1N[C@H](CO)[C@@H]1c1ccccc1)C(=O)c1ccncc1 | -6
COc1ccc(S(=O)(=O)N2CCCCN3[C@H](CO)[C@H](c4ccc(C#CC5CC5)cc4)[C@H]3C2)cc1 | -4
CCN(C[C@@H]1N[C@@H](CO)[C@@H]1c1ccccc1)C(=O)c1ccncc1 | -7
O=S(=O)(c1cccc(F)c1)N1CC[C@@H]2[C@H]1c1cc(C#Cc3ccccc3F)ccc1N[C@@H]2CO | -22
Cc1ccc(S(=O)(=O)Nc2ccc3c(c2)CC(=O)N([C@H](C)CO)C[C@@H](C)[C@H](CN(C)C(=O)Nc2ccc(F)cc2)O3)cc1 | -2
CCCNC(=O)N1[C@H](CN(C)C(C)=O)[C@H](c2ccc(C3=CCCC3)cc2)[C@@H]1CO | 32
CNC(=O)C[C@@H]1CC[C@@H]2[C@H](COC[C@H](O)CN2S(=O)(=O)c2ccc(Oc3ccccc3)cc2)O1 | 8
CO[C@H]1CN(C)C(=O)c2ccc(NC(=O)c3ccc4c(c3)OCO4)cc2OC[C@@H](C)N(CC2CC2)C[C@H]1C | 10
COc1cccc(C(=O)Nc2ccc3c(c2)C(=O)N(C)C[C@@H](OC)[C@H](C)CN(C(=O)C2CCCC2)[C@H](C)CO3)c1 | 6

From PubChem

These rows are one share of the data; the hit share may differ from the screen's.
